Beta2AR agonist: human beta-2 adrenergic receptor agonism by FAP. P07550. Am2.2-beta2AR cells, FAP receptor internalization, flow cytometry; reference of the scale not given here. response, % (concentration not given with the values). 340,000 tested, 0.43% active;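 active means response above a set limit, near 3 SD of response in nonfluorescent compounds, cut at about 42% in these data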;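 further: stock transfer was 100 nL into about 11 µL; a reference agonist was the positive control; negative values mostly stem from fluorescent compounds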
LANA-H2A inh: blocks KSHV LANA binding to histone H2A/H2B | Q9QR71 | cell-free LANA-H2A/H2B peptide, fluorescence polarization | inhibition, % (no concentration beside the values) | 320,000 tested, 0.6% active | AID 2629; in the data active means inhibition mostly above about 10%, no sharp cut-off; inactive means mostly below about 6.7%;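 further: stock transfer was 7.5 nL into about 10 µL; 0% = median of vehicle wells and 100% = median of positive control wells; one replicate is shown; the record names a cut of 25% in any replicate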
Target sequence (Q9QR71 whole entry, looked up): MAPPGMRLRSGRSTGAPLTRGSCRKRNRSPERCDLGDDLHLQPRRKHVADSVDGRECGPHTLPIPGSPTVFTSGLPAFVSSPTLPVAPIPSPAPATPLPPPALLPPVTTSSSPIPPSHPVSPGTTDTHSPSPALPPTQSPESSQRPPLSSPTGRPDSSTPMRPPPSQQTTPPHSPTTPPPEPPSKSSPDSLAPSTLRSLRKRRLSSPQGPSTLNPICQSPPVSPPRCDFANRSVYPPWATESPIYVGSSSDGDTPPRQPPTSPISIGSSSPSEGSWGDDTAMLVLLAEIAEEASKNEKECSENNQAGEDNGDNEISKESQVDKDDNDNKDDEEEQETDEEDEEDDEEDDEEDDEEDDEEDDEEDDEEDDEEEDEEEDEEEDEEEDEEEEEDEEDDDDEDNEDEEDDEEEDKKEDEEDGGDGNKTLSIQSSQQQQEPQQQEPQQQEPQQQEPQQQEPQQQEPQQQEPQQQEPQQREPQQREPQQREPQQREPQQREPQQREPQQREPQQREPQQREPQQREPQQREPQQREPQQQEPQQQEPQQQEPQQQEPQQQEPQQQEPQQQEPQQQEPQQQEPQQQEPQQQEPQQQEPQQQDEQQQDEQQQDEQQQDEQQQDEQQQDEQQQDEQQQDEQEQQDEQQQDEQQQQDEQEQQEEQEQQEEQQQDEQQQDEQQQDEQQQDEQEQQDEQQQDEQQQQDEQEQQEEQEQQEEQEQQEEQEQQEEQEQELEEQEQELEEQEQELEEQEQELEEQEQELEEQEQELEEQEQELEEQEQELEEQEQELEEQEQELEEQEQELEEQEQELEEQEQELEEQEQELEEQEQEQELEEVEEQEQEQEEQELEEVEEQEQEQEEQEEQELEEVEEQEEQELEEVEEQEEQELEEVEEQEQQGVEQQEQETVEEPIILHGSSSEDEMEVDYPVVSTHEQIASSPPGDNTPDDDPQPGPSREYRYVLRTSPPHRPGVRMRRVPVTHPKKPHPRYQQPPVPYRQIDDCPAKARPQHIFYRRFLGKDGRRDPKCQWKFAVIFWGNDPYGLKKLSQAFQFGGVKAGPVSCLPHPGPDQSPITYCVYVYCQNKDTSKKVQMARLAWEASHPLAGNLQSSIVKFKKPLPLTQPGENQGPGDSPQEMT
A1 inh: inhibitors of the anti-apoptotic protein A1, read as caspase activation; caspase activation, % (test concentration not listed); MEF A1-2A-BIM cells, Caspase-Glo 3/7 luminescence, 3 h; percent of clofoctol response, vehicle zero; AID 2462; 330,000 tested, 0.066% active;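 active means over half of replicate activation scores above 10%, or exactly half above 10 with the replicate mean above 10; inconclusive means replicate mean below 10 yet half the replicates above 10; inactive means over half of replicates below 10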;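 further: wells of about 30 µL received 50 nL stock; many hits fall short of the cut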
Beta cell apopt: blocks beta cell apoptosis; INS-1E cytokine-induced death, ATP luminescence, 48 h; percent of positive-control rescue, neutral wells zero; protection from apoptosis, % (test concentration not listed); 300,000 tested, 0.8% active;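 active means all replicates at 75% or more, or half of them and the mean; inconclusive means half reach 75% but not the mean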;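 further: 0% = cytokine-treated negative control wells and 100% = positive control rescue; higher means more ATP so stronger rescue from cytokine killing; wells of about 40 µL received 100 nL stock; the first replicate is given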
Calb FLC: C. albicans growth modulation with fluconazole. AID 1979. C. albicans CaCi-2 (fluconazole-resistant clinical isolate) + fluconazole, Alamar Blue growth, 48 h. growth inhibition, % (no concentration beside the values). 300,000 tested, 0.57% active;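 active means most replicates above 75%; inconclusive means exactly half above 75%; inactive means most below 75%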;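 further: all wells also contain fluconazole at 8 µg/ml as a sub-toxic cotreatment; 0% = median of DMSO wells and 100% = median of geldanamycin control wells; wells of about 8 µL received 7.5 nL stock; the first replicate is given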
T cruzi inh: T. cruzi replication inhibition | T. cruzi beta-gal in NIH3T3, luminescence, 90 h | 300,000 tested, 1.4% active | inhibition, % (test concentration not listed);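 active means mean inhibition across valid replicates above about 55%, limit read from the data; inconclusive means mean below that limit but half or more replicates reach it; inactive means mean below it, under half of replicates reach it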;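 further: signal also drops with host cell toxicity which is not excluded here; 0% = plate median of DMSO wells and 100% = zero luminescence signal; higher percent means less beta-gal luminescence so fewer parasites; stock transfer was 50 nL into about 50 µL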
RanGTP-Imp inh: inhibitors of RanGTP-importin-beta interaction, primary screen, biochemical, FRET, CFP-Ran, YFP-importin-beta, homogeneous; cell-free CFP-Ran/YFP-importin-beta FRET ratio; 300,000 tested, 1.1% active; inhibition, % (no concentration beside the values);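 active means most replicates above 15%; inconclusive means exactly half above 15%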;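 further: 0% = DMSO wells and 100% = Ran loaded with GDP instead of GTP; wells of about 40 µL received 100 nL stock; the first replicate is given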
UCH37 DUB inh: inhibitors of human deubiquitinating enzyme UCH37; Q9Y5K5; purified proteasome/UCH37, Ub-AMC cleavage fluorescence; inhibition, % (concentration not given with the values); 330,000 tested, 0.33% active;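 active means mean of two replicates above 20%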;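 further: 0% = compound-free wells with enzyme and 100% = wells lacking proteasome; stock transfer was 100 nL into about 20 µL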
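assay system = human UCH37 enzyme supplied as purified proteasome complex | amount = proteasome at 0.15 nM in the dispensed enzyme solution | schedule = 30 min compound-proteasome preincubation then 25 min substrate reaction, room temperature | measured by = fluorescence, ex 355 nm, em 460 nm | benchmarks = no-proteasome wells (full inhibition) and compound-free wells (no inhibition)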
* marks the source's active call; other numbers are inactive results; i = inactive; ? = inconclusive; nt = no result given. Random draw from the library (roughly 4.3% active in at least one column).

SMILES	Beta2AR agonist	LANA-H2A inh	A1 inh	Beta cell apopt	Calb FLC	T cruzi inh	RanGTP-Imp inh	UCH37 DUB inh
O=C1C2C(c3ccccc3)=NN(c3ccccc3)C2C(=O)N1c1ccccc1 (stereo unspecified)	0	-0.7	-0.2	6	-2	-4	-1.4	i
O=c1c(Cl)c(NS(=O)(=O)c2ccccc2)cnn1-c1ccccc1	0	1.8	0.4	-1	9	-2	?	0.0
O=C(c1ccc(Cl)s1)N1CCCC1	0	-1.1	0.1	-6	-2	-6	-2.5	3.0
Nc1nc(CN2CCN(Cc3ccccc3)CC2)nc(Nc2ccc3c(c2)OCCO3)n1	5	-2.5	0.0	nt	-4	-1	1.8	5.3
C=CCN(C(=O)CC(NC(C)=O)c1ccccc1)c1nc(-c2ccc(S(C)(=O)=O)cc2)cs1 (stereo unspecified)	-10	-2.7	-0.4	12	-1	6	-1.3	nt
O=C(Nc1ccc(Cl)c(Cl)c1)C1CC(=O)N(c2ccc(Br)cc2)C1 (stereo unspecified)	1	2.6	-0.4	4	?	15	-1.8	5.4
COc1ccccc1C(=O)NNC(=O)c1ccc(NC(=O)C(C)C)cc1	-2	nt	nt	nt	-2	-6	9.0	-0.9
O=C(CSc1nnc(-c2cccc(Br)c2)o1)N1CCNC1=O	0	0.4	-1.7	-8	nt	nt	nt	-0.7
CC(C)CN(C(=O)CN(C)CC(=O)Nc1ccc(Cl)c(C(F)(F)F)c1)c1c(N)n(CC(C)C)c(=O)[nH]c1=O	5	1.4	1.0	-12	nt	nt	nt	-2.2
O=C1CC(c2ccccc2)n2nc(NC(=O)c3cccs3)nc2N1 (stereo unspecified)	-14	-6.6	0.4	nt	-2	-6	0.5	-1.5
O=C(Nc1nc(-c2cccnc2)cs1)c1cccc([N+](=O)[O-])c1	-8	2.4	-0.3	5	2	7	-2.0	4.8
COCCn1c(C)cc(C(=O)COC(=O)c2c(C)nn(Cc3ccccc3)c2C)c1C	-2	0.7	-0.5	nt	7	20	-3.2	-0.4
O=C(c1cc(-c2ccc(Cl)s2)nc2ccccc12)N1CCCC1	1	1.5	-0.5	-3	15	6	-1.9	-216
COc1ccc(N2C(=O)C(Cl)=C(Nc3ccccc3O)C2=O)cc1	5	2.0	-0.1	-6	-10	2	-3.9	1.6
CCOc1cc(/C=N/NC(=O)C(=O)NCc2cccnc2)ccc1O	1	-5.1	?	-13	-11	0	8.1	nt
Cc1c(CC(=O)O)c(=O)oc2cc3oc4c(c3cc12)CCCC4	-5	3.6	-0.1	-1	1	2	4.3	-38
Cn1c(SCC(=O)c2ccc(O)cc2O)nnc1-c1ccccc1	0	0.1	2.3	-7	5	-8	2.7	2.7
CCOc1ccc(S(=O)(=O)N2CCCCC2)cc1NC(=O)CN1C(=O)NC(CC)(c2ccccc2)C1=O (stereo unspecified)	-1	-0.9	0.0	nt	-8	12	0.7	1.9
CN(C)Cc1cc(C(C)(C)C)cc(C(C)(C)C)c1O	2	-7.0	0.1	1	2	-5	2.2	-0.1
O=C(NNc1ncnc2sccc12)c1ccc(Cl)cc1	-5	0.7	2.3	13	-13	-29	3.3	2.9
O=C1/C(=C\c2cccnc2)SC(=S)N1C1CCS(=O)(=O)C1 (stereo unspecified)	2	2.4	1.5	-70	91*	-1	nt	7.1
CC(C)(C)OC(=O)NNC(=S)NC1CCCCC1	-7	2.5	-0.6	-2	-10	-9	?	1.5
N#Cc1nc(Cc2cccc3ccccc23)oc1NCCN1CCOCC1	17	0.7	-0.8	-6	4	1	0.8	5.6
C=CCn1c(SCc2cccc(F)c2)nc2cc(C(=O)N3CCC(C(N)=O)CC3)ccc2c1=O	3	-0.3	-0.3	17	2	23	-0.7	5.5
COc1ccc(CC(=O)O/N=C(\N)c2ccc(Br)cc2)cc1OC	-1	-11	0.7	-3	-5	-10	-2.8	nt
Cc1occc1-c1n[nH]c(=S)n1CC(C)C	-4	-4.2	-0.4	1	1	-9	-1.2	-0.4
C=CCn1c(SCC(=O)/C(C#N)=C(\C)N)nc2sc(C)c(C)c2c1=O	-3	3.4	-0.3	7	-3	-12	0.8	-0.1
Cc1ccc(-c2nc3sc4c(c3c(=O)n2N)CCCC4)cc1	-1	-9.1	-4.0	2	2	12	-2.9	-1.0
CCCC(=O)Nc1nnc(SCC(=O)N2C(C)CCCC2C)s1 (stereo unspecified)	-3	0.6	0.8	-1	8	8	-3.3	1.5
COc1ccc(NC(=O)CCC(=O)Nc2nnc(C(F)(F)F)s2)c(OC)c1	-2	-4.0	-0.3	2	-23	3	-1.7	-0.1
NC(=O)C1=C[C@H](c2ccc(C(F)(F)F)cc2)C[C@H](OCc2ccc(CO)cc2)O1	-2	-2.3	2.8	2	3	-12	-0.1	2.5
COc1ccc(/C(N)=N/OC(=O)CCCc2ccccc2)cc1	-2	-3.2	-0.8	-7	17	6	3.9	3.4
CN(C(=O)COc1ccccc1C(=O)NCCc1ccccc1)c1ccccc1	3	3.7	0.1	-5	-3	0	-1.6	5.6
CC(C)(C)OC(=O)N1CCN(C(=O)c2nc[nH]c2C(=O)N2CCN(C(=O)OC(C)(C)C)CC2)CC1	1	4.9	1.5	-6	nt	nt	nt	5.8
O=C1NCCOC(=O)[C@H](Cc2ccc(F)cc2)C/C=C\C[C@@H]1CC(=O)N(CCO)Cc1ccccc1	-1	4.1	-0.3	13	nt	nt	nt	-1.4
Cc1ccc(NC(=O)c2ccc(=O)[nH]n2)cc1S(=O)(=O)Nc1ccc(SC(F)F)cc1	9	0.2	-0.9	5	nt	nt	nt	-1.6
COc1ccc(CNS(=O)(=O)c2cn(C)c(=O)n(C)c2=O)cc1	4	-0.7	-0.9	0	3	4	3.5	-0.5
Cn1c(COc2ccc3ccccc3c2)nnc1SCC(=O)O	5	-4.3	-0.7	-3	-2	-10	1.5	1.8
CCN(CCC(=O)Nc1cc(OC)cc(OC)c1)Cc1ccccc1	1	1.5	0.5	-4	-12	7	-4.3	-0.7
COc1ccc(CN2CCNC(=O)C2CC(=O)N(C)CC2CCOCC2)cc1C (stereo unspecified)	-6	nt	nt	nt	-6	-2	-1.8	3.4
O=C(O)c1ccccc1C(=O)Nc1cc(-c2ccccc2)[nH]n1	-11	-1.2	0.4	-12	5	-11	-0.2	4.3
CN(C)C(=O)COc1ccc2c3c(c(=O)oc2c1)CCCC3	-13	-1.7	-0.2	nt	12	-11	5.2	-85
CCn1cc([N+](=O)[O-])c(C(=O)Nc2ccc(Cn3nc(C)cc3C)cc2)n1	13	3.0	1.1	-3	-3	5	0.1	1.6
CCN(CC)CCNC(C(=O)Nc1ccc([N+](=O)[O-])cc1Br)c1ccccc1 (stereo unspecified)	-5	-5.4	-0.6	-4	8	26	?	3.5
O=Cc1cccc(OCc2cccc3ccccc23)c1	71*	-5.0	0.6	6	15	9	-7.3	1.5
Cc1cccc2c(=O)c(C(=O)NCc3ccc(F)cc3)c[nH]c12	-3	3.3	1.0	-4	1	-4	1.8	-0.1
COc1ccc([C@@H](NC(=O)OC(C)(C)C)C(=O)OC(C)(C)C)cc1	-3	-1.8	0.3	3	nt	nt	nt	1.1
CS(=O)(=O)c1ccc(-c2cn3cc(C(=O)O)ccc3n2)cc1	1	7.9	-6.5	-5	-2	-12	0.5	-454
Cc1cccc(N(CC(=O)N2CCCCCC2)S(C)(=O)=O)c1	13	0.9	1.1	-15	-4	-2	?	5.8
CCN(CC(=O)Nc1ccc(NC(C)=O)cc1)C(=O)c1ccc(COc2ccccc2)o1	-11	5.4	-1.0	1	nt	nt	nt	3.5
O=C(N/N=C/c1ccccc1F)C(=O)N1CCCCCC1	2	3.5	1.7	-8	13	-7	2.9	nt
Cc1ccsc1C(=O)NNC(=O)c1ccccc1F	3	-4.0	-12	16	nt	nt	nt	4.3
COc1ccc(OCC(O)CN2CCN(Cc3ccc4c(c3)OCO4)CC2)cc1 (stereo unspecified)	3	-22	-0.3	-1	-31	26	2.2	3.1
CC(=O)N1CC=C2C(C#N)=C(N)C(C#N)(C#N)[C@H](c3ccoc3)[C@H]2C1	5	-0.9	0.6	-13	10	4	-3.7	-25
CC1CCN(C(=S)c2ccc([N+](=O)[O-])cc2)CC1	-9	-2.5	-0.2	4	-9	-5	0.6	4.0
Cc1ccc(Nc2nc(NCCO)nc3c2cnn3C)cc1Cl	6	0.0	-1.5	8	-2	12	-0.3	-1.9
O=c1oc2ccccc2n1Cc1ccccc1Cl	1	-3.0	-0.3	-8	-1	-1	-3.2	2.5
CC(C)C1CC(CCN)(Cc2ccccc2)CCO1 (stereo unspecified)	11	-0.2	0.4	0	-11	-1	-0.4	5.5
N/C(Cc1cccs1)=N\OC(=O)COc1ccc(Br)cc1Cl	5	-2.2	0.5	2	-20	20	-4.4	3.1
O=C(CSc1nnnn1C1CCCCC1)N1CCOCC1	-1	-1.2	-0.4	-2	-2	-1	-1.0	0.1

More structures.
SMILES	Beta2AR agonist	LANA-H2A inh	A1 inh	Beta cell apopt	Calb FLC	T cruzi inh	RanGTP-Imp inh	UCH37 DUB inh
CC1(C)CN=C(N(C(=O)Nc2ccccc2)c2ccccc2F)S1	6	-8.1	-0.1	-3	-3	-12	1.0	-1.4
O=C(CCS(=O)CCC(=O)NCc1ccccc1)NCc1ccccc1	3	-0.1	1.2	-4	-1	-34	-0.7	1.9
Cc1cc(C)n(C(=O)c2cccc(S(=O)(=O)N3CCCC3)c2)n1	10	-6.9	0.1	-3	-4	-17	3.5	3.7
Cc1cc(NC(=O)C2CCCC2)n(-c2nc3ccccc3[nH]2)n1	-5	-2.3	-0.3	7	-31	10	-13	1.2
COC(=O)c1ccsc1NC(=O)CS(=O)(=O)c1ccccc1	3	-3.8	0.1	nt	-1	-7	0.3	0.4
COc1ccc(S(=O)(=O)NCC(c2ccco2)N2CCc3ccccc32)cc1 (stereo unspecified)	16	-3.7	1.0	nt	17	25	-0.3	1.1
CC(=O)N(C)c1ccc(N=Nc2c(C)[nH]n(-c3ccccc3)c2=O)cc1	4	1.1	-0.1	15	-2	16	-2.7	2.6
COc1cc(C(=O)OC(C)C(=O)N2CCCC2)cc2c1OCCO2 (stereo unspecified)	-5	0.1	0.9	-3	nt	nt	nt	2.0
CCc1ccc(NC(=O)C2CCN(C(=O)[C@@H]3Cc4ccccc4CN3)CC2)cc1	20	-9.8	0.3	-2	-9	4	-1.1	4.4

Quoted from the listing.
Beta2AR agonist, COc1ccc(S(=O)(=O)NCC(c2ccco2)N2CCc3ccccc32)cc1 (stereo unspecified) : 16
A1 inh, Cc1cc(NC(=O)C2CCCC2)n(-c2nc3ccccc3[nH]2)n1 : -0.3

Structures listed above printed as active in Beta2AR agonist.
Compound,Beta2AR agonist,LANA-H2A inh,RanGTP-Imp inh,UCH37 DUB inh
O=Cc1cccc(OCc2cccc3ccccc23)c1,71*,-5.0,-7.3,1.5

Assay outcomes (PubChem BioAssay)
